Calb FLC = C. albicans growth inhibition with fluconazole, primary screen, CaCi-2 strain, Alamar Blue fluorescence. C. albicans CaCi-2 (fluconazole-resistant clinical isolate) + fluconazole, 48 h. growth inhibition, % (no concentration beside the values). 300,000 compounds, 0.57% hits. AID 1979, 2009;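 active = most replicates above 75%; inconclusive = exactly half above 75%; inactive = most below 75%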;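 note: all wells also contain fluconazole at 8 µg/ml as a sub-toxic cotreatment; 0% = median of DMSO wells and 100% = median of geldanamycin control wells; wells of about 8 µL received 7.5 nL stock; the first replicate is given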
LANA-H2B inh = blockers of LANA interaction with H2A/H2B – biochemical, FP readout, HTS, primary screen; Protein LANA1 (Human herpesvirus 8 type P (isolate GK18)), Q9QR71; cell-free LANA-H2A/H2B peptide, fluorescence polarization; inhibition, % (concentration not given with the values); 320,000 compounds, 0.6% hits; AID 2629, 2010; in the data active = inhibition mostly above about 10%, no sharp cut-off; inactive = mostly below about 6.7%;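 note: stock transfer was 7.5 nL into about 10 µL; 0% = median of vehicle wells and 100% = median of positive control wells; one replicate is shown; the record names a cut of 25% in any replicate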
Target sequence (Q9QR71 whole entry, looked up): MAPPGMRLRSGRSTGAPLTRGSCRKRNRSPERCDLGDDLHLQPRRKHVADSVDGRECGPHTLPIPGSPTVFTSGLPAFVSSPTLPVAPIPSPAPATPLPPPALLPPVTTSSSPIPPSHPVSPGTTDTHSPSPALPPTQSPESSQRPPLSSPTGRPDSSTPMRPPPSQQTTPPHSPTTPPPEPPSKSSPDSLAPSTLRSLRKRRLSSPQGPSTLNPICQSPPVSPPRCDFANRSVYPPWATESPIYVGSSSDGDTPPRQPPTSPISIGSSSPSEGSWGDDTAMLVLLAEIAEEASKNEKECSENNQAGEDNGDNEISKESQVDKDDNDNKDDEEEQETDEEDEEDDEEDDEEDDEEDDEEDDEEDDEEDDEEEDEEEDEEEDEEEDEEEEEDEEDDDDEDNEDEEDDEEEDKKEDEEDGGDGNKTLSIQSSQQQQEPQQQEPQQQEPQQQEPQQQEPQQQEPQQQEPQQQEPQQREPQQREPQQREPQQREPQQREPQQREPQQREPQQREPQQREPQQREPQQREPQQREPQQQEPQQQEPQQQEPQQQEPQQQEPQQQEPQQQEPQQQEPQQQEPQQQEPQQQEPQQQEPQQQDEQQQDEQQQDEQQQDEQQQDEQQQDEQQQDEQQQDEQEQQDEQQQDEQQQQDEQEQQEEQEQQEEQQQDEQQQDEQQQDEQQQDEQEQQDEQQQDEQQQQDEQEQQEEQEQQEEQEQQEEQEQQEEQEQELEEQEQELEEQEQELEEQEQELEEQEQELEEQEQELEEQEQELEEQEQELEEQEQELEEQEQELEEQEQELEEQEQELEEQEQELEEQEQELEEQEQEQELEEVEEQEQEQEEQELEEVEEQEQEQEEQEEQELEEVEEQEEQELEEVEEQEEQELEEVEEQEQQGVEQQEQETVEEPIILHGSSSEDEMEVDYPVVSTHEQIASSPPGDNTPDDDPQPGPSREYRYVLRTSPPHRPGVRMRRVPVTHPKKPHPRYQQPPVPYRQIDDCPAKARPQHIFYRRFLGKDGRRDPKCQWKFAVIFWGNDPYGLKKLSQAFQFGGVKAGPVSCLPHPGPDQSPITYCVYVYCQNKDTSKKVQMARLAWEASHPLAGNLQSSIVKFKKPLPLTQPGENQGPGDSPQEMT
T cruzi repl = inhibitors of intracellular T. cruzi growth, primary screen, luminescence, NIH3T3 host cells; T. cruzi beta-gal in NIH3T3, 90 h; inhibition, % (no concentration beside the values); 300,000 compounds, 1.4% hits; AID 1885, 2009;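 active = mean inhibition across valid replicates above about 55%, limit read from the data; inconclusive = mean below that limit but half or more replicates reach it; inactive = mean below it, under half of replicates reach it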;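 note: signal also drops with host cell toxicity which is not excluded here; 0% = plate median of DMSO wells and 100% = zero luminescence signal; higher percent means less beta-gal luminescence so fewer parasites; stock transfer was 50 nL into about 50 µL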
Beta cell apopt = inhibitors of cytokine-induced beta cell apoptosis, primary screen, luminescence. INS-1E cytokine-induced death, ATP luminescence, 48 h; percent of positive-control rescue, neutral wells zero. protection from apoptosis, % (concentration not given with the values). 300,000 compounds, 0.8% hits;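 active = all replicates at 75% or more, or half of them and the mean; inconclusive = half reach 75% but not the mean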;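 note: 0% = cytokine-treated negative control wells and 100% = positive control rescue; higher means more ATP so stronger rescue from cytokine killing; wells of about 40 µL received 100 nL stock; the first replicate is given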
RanGTP-Impb inh = inhibitors of RanGTP-importin-beta interaction, primary screen, biochemical, FRET, CFP-Ran, YFP-importin-beta, homogeneous; 300,000 compounds, 1.1% hits; inhibition, % (concentration not given with the values); cell-free CFP-Ran/YFP-importin-beta FRET ratio; Ran GTPase (GTP-bound) - importin-beta complex; AID 2216, 2009;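 active = most replicates above 15%; inconclusive = exactly half above 15%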;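 note: 0% = DMSO wells and 100% = Ran loaded with GDP instead of GTP; wells of about 40 µL received 100 nL stock; the first replicate is given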
A1 inh = caspase 3/7 activation in MEF A1-2A-BIM cells, primary screen, A1 inhibitor project, cell-based, luminescence, HTS; 330,000 compounds, 0.066% hits; caspase activation, % (no concentration beside the values); Caspase-Glo 3/7 luminescence, 3 h; percent of clofoctol response, vehicle zero;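 active = over half of replicate activation scores above 10%, or exactly half above 10 with the replicate mean above 10; inconclusive = replicate mean below 10 yet half the replicates above 10; inactive = over half of replicates below 10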;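 note: wells of about 30 µL received 50 nL stock; many hits fall short of the cut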
MLL AF4-AF9 inh = inhibitors of AF4 peptide binding to AF9, primary screen, biochemical, AlphaScreen, biotin-AF4 peptide, FLAG-AF9, single point; AID 651704, 2012; 350,000 compounds, 0.47% hits; Protein AF-9 (Homo sapiens), P42568; inhibition, % at 10 µM;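 active = every replicate reaching a set inhibition limit, whatever the replicate mean, cut at about 25% in these data; inconclusive = mean inhibition reaches that limit but some replicates miss it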;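 note: 0% = plate neutral control median and 100% = total signal loss; the record names both 10 and 1 µM as test concentration; the first replicate is given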
Vif A3G = inhibitors of Vif binding to APOBEC3G peptide, primary screen, biochemical, TR-FRET, GST-Vif 1-94, biotin-A3G peptide, dose response retest (AID 1117319); Virion infectivity factor (Human immunodeficiency virus type 1 group M subtype B (isolate …; TR-FRET GST-Vif / biotin-A3G peptide binding; higher % means a stronger effect; test concentration not given here; strong numbers were not always called active; one-dose inhibition, %; IC50 in µM for titrated hits; 260,000 compounds, 0.57% hits;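 active = above the screen mean plus three standard deviations and confirmed in dose response; inconclusive = results disagree or hit not tested in dose response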;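 note: Vif residues 1-94 fused to GST binding biotinylated APOBEC3G peptide 110-148; 0% = full assay without inhibitor and 100% = GST in place of GST-Vif; retest series ran down from 100 µM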
* = called active by the depositor; ? = inconclusive; · = not tested or not shown; & = joins results of further samples.

SMILES	Calb FLC	LANA-H2B inh	T cruzi repl	Beta cell apopt	RanGTP-Impb inh	A1 inh	MLL AF4-AF9 inh	Vif A3G
Cc1cc(OCC(=O)N2CCc3ccccc3C2)c2c(-c3ccccc3)cc(=O)oc2c1	15	-4.5	24	-1	1.8	-0.2	·	22%
O=C(COc1ccc(Br)cc1)NCCCNC(=O)c1ccncc1	5	-6.0	-4	-3	2.3	-0.9	0.4	·
Cc1ccc(N(C(=O)c2csnn2)C(C(=O)NC2CCCC2)c2cccnc2)c(C)c1 (stereo not drawn)	-1	7.9	-13	-7	0.9	-0.1	0.3	·
COC(=O)c1ccc(C2/C(=C(\O)c3ccc4c(c3)OCCO4)C(=O)C(=O)N2CCCN(C)C)cc1 (stereo not drawn)	-2	0.0	4	-6	3.1	1.5	·	-3%
Nc1nn(-c2ccccc2Cl)cc1-c1nn[nH]n1	0	-3.6	-13	2	0.3	-0.7	-1.6	5%
Cc1cc(C)n(-c2c(F)c(F)c(CN3CCOCC3)c(F)c2F)n1	-2	-1.1	-11	-8	8.7	0.6	·	17%
CN(Cc1cccnc1)C(=O)c1cc(COc2ccc3ncccc3c2)on1	5	4.1	17	101*	0.3	-0.1	0.9	22%
O=C(CN1C(=O)S/C(=C\c2cccs2)C1=O)Nc1ccc(C(=O)O)c(O)c1	-6	4.1	-20	-2	-3.5	-2.1	3.9	8%
Cc1nccnc1Sc1ccccc1	14	2.6	-2	-5	1.2	0.0	2.6	-12%
CNC1=C(N(C(C)=O)c2ccc(Br)cc2)C(=O)c2ccccc2C1=O	103*	0.3	70*	131*	-2.8	-3.9	·	25%
Cc1ccc(C(=O)NC2CC2)cc1S(=O)(=O)N1CCOCC1	·	-2.5	·	-4	·	-0.6	1.7	-15%
Cc1ccc(CNC(=O)c2ccccc2NC(=O)CN2CCN(C)CC2)cc1	-5	-1.7	9	-12	3.1	0.7	-1.1	5%
N=c1n(CCO)c2ccccc2n1CCN1CCCCC1	3	-4.2	·	-2	·	0.9	0.6	5%
COc1cc(O)c(C(CCN2CCCCC2)c2ccc3c(c2)OCO3)c(OC)c1 (stereo not drawn)	-11	-9.3	6	0	-2.2	1.7	·	5%
Cc1ccc(C)c(OCCn2cc(/C=C(\C#N)C(=O)NCC3CCCO3)c3ccccc32)c1 (stereo not drawn)	?	5.3	25	4	1.3	-0.6	11	20%
COC(=O)c1ccccc1NC(=O)c1cncc(Br)c1	13	2.3	-13	0	-2.4	-0.1	·	-27%
COc1cccc(S(=O)(=O)Nc2cccnc2)c1	1	-1.2	2	-10	?	0.9	·	-5%
COc1ccc(/C=C(/NC(=O)c2ccccc2)C(=O)N/N=C/c2ccncc2)cc1	-17	1.0	-12	-4	4.3	0.0	0.4	-8%
O=C(O)CCC(=O)N1CCc2cc(S(=O)(=O)NC3CCCc4ccccc43)ccc21 (stereo not drawn)	-6	-3.5	-6	-9	-3.9	-0.8	·	28%
COc1ccccc1CC(=O)NCc1nn(-c2ccccc2)nc1C	-18	1.2	20	·	4.0	0.8	-8.6	·
COc1ccccc1CNC(=O)COc1ccc(S(=O)(=O)N2CCCC2)cc1	2	-2.8	2	2	-3.6	-0.1	1.6	8%
CCCCN1C(=O)/C(=C2/Sc3ccc(Cl)cc3N2CC)SC1=S	-8	-1.9	0	1	0.4	0.5	·	·
CCCCCn1c(=O)[nH]c2cc(C(=O)N3CCN(c4ccccc4F)CC3)ccc2c1=O	-7	-14	-5	12	1.4	1.1	1.2	·
O=C(OCc1nc2ccccc2s1)c1ccc(Br)s1	30	0.3	3	-7	0.3	1.6	·	-1%
CC(=O)NC1=NN(C(C)=O)C(C)(c2ccccn2)S1 (stereo not drawn)	-24	-8.0	-8	-5	2.4	0.4	3.0	·
New compounds follow:
SMILES	Calb FLC	LANA-H2B inh	T cruzi repl	Beta cell apopt	RanGTP-Impb inh	A1 inh	MLL AF4-AF9 inh	Vif A3G
NC(=O)c1ccc(NC(=O)COC(=O)C2CCN(S(=O)(=O)c3cccs3)CC2)cc1	·	-3.0	·	-5	·	0.2	-11	·
Cc1ccc(-n2nnnc2-c2cccs2)cc1[N+](=O)[O-]	6	2.1	-2	-4	-4.3	0.5	0.9	·
Cc1nnc2c3ccccc3c(-c3ccccc3)nn12	-10	7.1	-31	-28	0.7	0.1	·	·
Cc1nnc(NC(=O)CSc2nccn2C)s1	12	2.9	-12	-2	3.1	-0.8	·	·
N#CCn1cnc2c(oc3ccccc32)c1=O	-3	5.7	-18	-3	-1.8	0.4	·	24%
O=C(CCc1nc2ccccc2c(=O)[nH]1)Nc1ccc(Cl)c(Cl)c1	0	-13	3	0	2.8	0.5	2.7	13%
COc1ccc(C(=O)Nc2ccccc2C(=O)NC(Cc2ccc(O)cc2)C(=O)NNC(=O)c2ccccc2Cl)cc1 (stereo not drawn)	10	-3.8	4	3	-3.7	0.7	·	·
O=C(COc1ccc(Br)cc1Br)NC(=S)N1CCCc2ccccc21	-7	-1.2	39	·	4.4	-0.4	·	20%
CC(=O)Nc1ccc(NC(=O)COC(=O)/C=C/c2ccc3c(c2)OCO3)cc1	·	1.7	·	-4	·	-1.6	-41	5%
CC(=O)C1=C(O)C(=O)N(c2ccc(O)cc2)C1c1cccc([N+](=O)[O-])c1 (stereo not drawn)	1	-5.2	-6	5	4.0	1.5	-8.3	·
Clc1ccc(C2=CSC3=NCCN23)cc1Cl	10	-5.8	-5	5	6.9	-0.1	·	-2%
CN(CCC#N)S(=O)(=O)c1ccc2c(c1)c(=O)n(C)c(=O)n2C	-5	-2.3	-12	7	4.7	0.3	·	-3%
NC(=O)c1nc(-c2ccco2)nc2c1[nH]c(=O)n2-c1ccc(Cl)c(Cl)c1	-1	0.3	3	30	?	-0.3	-2.4	?
CCCCCCn1c(N(CC)CC)nc2c1c(=O)[nH]c(=O)n2C	-2	-2.3	0	-11	0.8	0.4	·	-3%
CC1=NNC(=O)C1CC(=O)N/N=C/c1cccs1 (stereo not drawn)	-2	5.1	-3	-3	3.1	-0.3	0.2	2%
O=C(NCc1ccco1)C(c1cccnc1)N(C(=O)Cn1nnc2ccccc21)c1ccc(F)cc1 (stereo not drawn)	0	1.2	9	-8	-2.4	0.0	·	-3%&-3%
N#Cc1ccc(CSc2ncnc3c2cnn3Cc2ccccc2)cc1	2	-1.0	30	4	0.3	-0.4	·	4%
O=C(CCCCCN1C(=O)c2ccccc2C1=O)Nc1ccccc1F	1	4.4	4	1	0.1	-0.1	-1.0	·
O=C(Nc1ccc2c(c1)OCCO2)c1cccc(Br)c1	-2	2.9	-11	4	2.5	-12	-3.8	4%
CC(=O)c1cccc(NC2c3ncccc3C(=O)N2Cc2ccco2)c1 (stereo not drawn)	-4	·	4	·	5.1	·	9.5	13%
CC(C)c1ccc(-c2nn(-c3ccccc3)cc2C(=O)NCC2CCCO2)cc1 (stereo not drawn)	-3	-1.1	52	7	-2.5	0.0	-8.0	-2%
Cc1cc(C)c(S(=O)(=O)NCC2CCC(C(=O)NCc3ccccn3)CC2)c(C)c1 (stereo not drawn)	21	4.3	36	-3	0.7	-0.9	-4.6	3%
Cc1nc(NC(N)=S)sc1C(=O)Nc1ccccc1	-8	-1.5	-7	-7	5.6	-0.4	·	-7%
CNc1nc(-c2ccc(OC)cc2)c(-c2ccc(OC)cc2)s1	-1	-1.9	-3	10	3.3	-0.5	-0.5	4%
O=C(N/N=C\c1cccc([N+](=O)[O-])c1O)C1COc2ccccc2O1 (stereo not drawn)	-16	2.9	-4	-4	-0.2	-4.7	·	·
Continued:
SMILES	Calb FLC	LANA-H2B inh	T cruzi repl	Beta cell apopt	RanGTP-Impb inh	A1 inh	MLL AF4-AF9 inh	Vif A3G
CCOC(=O)c1ccc(NC(=O)NCc2ccn(CC)n2)cc1	-24	-2.1	-3	-4	-1.0	0.2	·	21%
CC1CCN(c2ccccc2NC(=O)c2ccc(F)cc2)CC1	10	-2.6	0	4	0.9	-0.7	·	-1%
Fc1ccc(-c2nc3ccccc3c3nc4ccccc4n23)cc1	12	-5.9	-18	7	4.9	-0.3	2.9	-13%
CCCCn1c(SCC(=O)Nc2nnc(C)s2)nnc1-c1ccncc1	-5	2.8	5	·	-3.5	1.5	-6.6	9%
Cc1cc(C)nc(SCc2cc(=O)c(OC(=O)c3ccc(S(=O)(=O)N(C)C)cc3)co2)n1	-32	-2.3	12	-4	5.1	-0.2	·	14%
CC1CC(=O)c2cn3c(nc2C1)nc1ccccc13 (stereo not drawn)	·	2.5	·	1	·	0.0	·	18%
Cc1c(/C=N/NC(=O)c2cccnc2)c2ccccc2n1Cc1ccccc1	4	12*	50	16	-1.3	-0.7	4.7	-8%
NS(=O)(=O)CCCc1ccccc1	10	2.7	-6	·	0.0	-0.3	-0.7	·
CC(=NCCCN(C)C)C1=C(O)c2ccccc2C1=O	-6	1.9	44	-5	0.3	0.4	·	4%
C1CCC2(CC1)C1=C(CCCC1)Nc1nnnn12	19	9.4	-3	3	?	-0.1	·	-2%
Cc1cc2nc(-c3cccnc3SCC(=O)NC3CC3)[nH]c2cc1C	-7	-5.1	15	17	-0.6	-7.3	-1.6	-56%
COc1ccc(-c2nnc3sc(-c4ccccc4OC)nn23)cc1	4	-3.0	-21	·	4.3	1.2	·	-22%
Cc1cccc(NCC(=O)c2c(N)n(C)c(=O)n(C)c2=O)c1C	2	4.5	4	-6	2.5	0.0	2.1	16%
CCC(C)[C@@H](N)C(=O)N/N=C/c1cccc2nccnc12 (stereo partly drawn)	-8	-2.1	-55	-5	1.5	2.3	·	·
COc1ccc(CN(C(=O)c2ccc(C)cc2)c2cccc(N)c2)cc1	-7	6.0	-1	-5	8.6	-0.4	0.8	·
CCCC(=O)Nc1nnc(SCC(=O)Nc2nc(C)cs2)s1	·	2.2	-8	-24	·	-0.6	-1.4	6%
CCCCn1c(=O)nc2n(-c3ccccc3)c3ccccc3cc-2c1=O	-6	2.9	12	6	142*	0.1	·	1%
CCN(CC)S(=O)(=O)c1ccc(C(C)NC(=O)Cc2c[nH]c3ccccc23)cc1 (stereo not drawn)	7	-3.3	13	-6	3.6	0.1	1.5	-9%
Cc1cc(=O)n2c(n1)NC(=NCc1ccccc1)NC2c1ccccc1 (stereo not drawn)	-9	-0.5	-2	3	1.9	-0.3	-2.0	-5%
O=S(=O)(CC(O)COc1ccccc1Cl)c1ccccc1 (stereo not drawn)	4	-1.1	·	-4	6.1	0.8	·	-6%

Screens: PubChem BioAssay, several laboratories

No enrichment for hits. About 4.3% of those tested had a hit in this group.
